Screening data from PubChem.
Cruzain noTriton – cruzain (T. cruzi) inhibition without detergent; purified cruzain, Z-FR-AMC fluorescence, no detergent; 2.3% of 200,000 active; P25779; Potency, µM, without a hit: max response, negative = inhibition, hits mostly inhibitors;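 further: plate controls were enzyme without inhibitor for no effect and buffer without enzyme for full effect; nearly all actives have a fitted effect of over 40% in size; top concentration of the series not given in the record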
Target sequence (P25779 123-467 limits assumed): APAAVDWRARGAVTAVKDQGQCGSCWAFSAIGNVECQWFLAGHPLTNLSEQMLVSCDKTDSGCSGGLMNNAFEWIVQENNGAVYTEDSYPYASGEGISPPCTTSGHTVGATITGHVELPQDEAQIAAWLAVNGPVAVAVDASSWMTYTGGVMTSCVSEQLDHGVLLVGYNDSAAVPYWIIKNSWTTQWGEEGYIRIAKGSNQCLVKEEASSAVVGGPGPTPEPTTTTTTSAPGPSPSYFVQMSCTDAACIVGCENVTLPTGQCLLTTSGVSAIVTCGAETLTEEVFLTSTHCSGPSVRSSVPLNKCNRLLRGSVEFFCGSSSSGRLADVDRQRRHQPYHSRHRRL
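Purified cruzain at 1.5 nM, pre-incubated 15 min with compound at room temperature in 100 mM sodium acetate pH 5.5, 5 mM DTT, 0.00005% Triton X-100. Reaction started with 2 uM Z-FR-AMC; AMC fluorescence increase over 60 s gives rate.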
StopGo reporter – lowers the luciferase signal of an FMDV 2A StopGo reporter | AID 1159524 | human cells with a luciferase reporter of 2A StopGo recoding; control for the full effect not named in the record | Potency, µM (doses to about 57.9 µM), inactives show at the top dose signal change, negative = less light | 1.2% of 410,000 active; active = well fitted falling curve with a large enough effect; inconclusive = small, poorly fitted or top-dose-only effect; inactive = no such curve, though single readings can be large or run the other way; tested in HEK293T cells; further: on the % scale 0 is the no-effect control and ±100 the full control effect; nearly all actives have a fitted effect of over 45% in size; luciferase light after 4 h
Cruzain inh Det – cruzain (T. cruzi) inhibition with detergent; P25779; purified cruzain, Z-FR-AMC fluorescence, 0.01% Triton; Potency, µM, without a hit: max response, negative = inhibition, most hits filed as inhibitors; 0.43% of 200,000 active; AID 1478;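 further: plate controls were neutral wells for no effect and buffer without enzyme for full effect; nearly all actives have a fitted effect of over 40% in size; top concentration of the series not given in the record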
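Purified cruzain (1.5 nM final) was preincubated with compounds for 15 min at room temperature in 100 mM sodium acetate pH 5.5, 5 mM DTT, 0.01% Triton X-100. Reaction started with 2 uM Z-FR-AMC; AMC fluorescence change over 60 s gave activity.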
Lassa entry inh – inhibitors of Lassa virus binding or cell entry; Lassa virus pseudotype entry inhibition, cell reporter; control for the full effect not named in the record; 1.2% of 300,000 active; Potency, µM (top dose mostly 37.9 µM), for the others: top-dose activity change, negative = inhibition, actives largely listed as inhibitors; active means well fitted inhibition curve with a large enough effect; inconclusive means small, poorly fitted or top-dose-only effect, or effect the other way; inactive means flat fitted curve, though single readings scatter; tested in HEK293 cells; further: on the % scale 0 is the no-effect control and ±100 the full control effect; nearly all actives have a fitted effect of over 50% in size; luciferase read-out
NS1 function inh – blocks influenza NS1 protein function. S. cerevisiae slowed by influenza A NS1, growth recovery by OD600. Potency, µM (series often up to 46.1 µM), for the others: at the highest dose activity, positive = more growth. 0.4% of 270,000 active; active means well fitted rising curve with a large enough effect; inconclusive means small, poorly fitted or top-dose-only effect; inactive means no such curve, though single readings can be large or run the other way; further: nearly all actives have a fitted effect of over 50% in size
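OD600 was taken as the measure of yeast growth restored by compound in an NS1-expressing S. cerevisiae strain. Cells had been washed out of glucose medium and diluted 1:100 into galactose -URA medium, pH 6.0.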
RE007 growth inh – less growth of the S. pombe RE007 Vpr strain. 0.21% of 360,000 active. AID 651644. S. pombe RE007 Vpr strain, BacTiter-Glo ATP luminescence, 24 h; control for the full effect not named in the record. Potency, µM (titrated, usually from 92.2 µM), without a hit: top-dose activity change, negative = less growth; active = well fitted falling curve with a large enough effect; inconclusive = small, poorly fitted or top-dose-only effect; inactive = no such curve, though single readings can be large or run the other way;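 further: on the % scale 0 is the no-effect control and ±100 the full control effect; nearly all actives have a fitted effect of over 50% in size; the assay follows cell death caused by Vpr and the record does not say whether a fall means rescue or toxicity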
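Fission yeast strain RE007, carrying one chromosomally integrated HIV-1 vpr copy, was seeded at OD 0.01 in PMG+AL medium with 23 nL pinned compound. After 24 h at 30 °C and 99% humidity, viability was read by BacTiter-Glo luminescence.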
MARV entry inh – Marburg virus entry inhibition; Potency, µM (top dose mostly 37.8 µM), without a hit: at the highest dose activity change, negative = inhibition, usual class: inhibitors; Marburg virus pseudotyped entry inhibition, cell reporter; control for the full effect not named in the record; about a third of the inactives were read at about 46 µM; AID 540276; 1.8% of 300,000 active; active = well fitted inhibition curve with a large enough effect; inconclusive = small, poorly fitted or top-dose-only effect, or effect the other way; inactive = flat fitted curve, though single readings scatter; tested in HEK293 cells; about a fifth of its hits are not listed in these tables; further: on the % scale 0 is the no-effect control and ±100 the full control effect; luciferase read-out
SARS PLP yeast – blocks SARS-CoV papain-like protease in a yeast assay; S. cerevisiae expressing SARS-CoV PLpro, growth rescue; control for the full effect not named in the record; Potency, µM (top dose mostly 32.9 µM), without a hit: top-dose activity, positive = growth rescue; 0.19% of 330,000 active; AID 485353; active means well fitted rising curve with a large enough effect; inconclusive means small, poorly fitted or top-dose-only effect; inactive means no such curve, though single readings can be large or run the other way; further: 0% is about no effect; nearly all actives have a fitted effect of over 55% in size; growth read by luminescence after 48 h
* = called active by the depositor; u = inconclusive; x = no result given; & = joins results of further samples; [ ] = another dose, or the depositor's remark. Unless noted, the call rests on the fitted dose curve; in most records, active means well fitted curve in the direction sought with a large enough effect; inconclusive means small, poorly fitted or top-dose-only effect, or another doubt; inactive means no such curve, though single readings can be large; an effect the other way counts as inactive or inconclusive. Potency means the concentration at half of the fitted maximal effect.

SMILES	Cruzain noTriton	StopGo reporter	Cruzain inh Det	Lassa entry inh	NS1 function inh	RE007 growth inh	MARV entry inh	SARS PLP yeast
COc1ccccc1NC(=O)CSc1nc2nccnc2c(=O)n1CCc1c[nH]c2ccccc12	3.6%	-14.2%	-2.7%	0.3%[46.1 µM]	x	x	x	x
CC(C)(C)c1ccccc1NC(=O)CSc1nc(-c2cccs2)cc(C(F)(F)F)n1	10.3%	u	-6.9%	4.5%[46.1 µM]	x	x	u	x
Cc1c(C(=O)N2CCOCC2)oc2ccc(Br)cc12	x	34.9%[activator]	x	-1.1%	x	-11.6%	-20.6%	2.8%
CN1CC(c2ccccn2)C2(SC(=S)N(Cc3ccccc3)C2=O)C12C(=O)Nc1ccccc12 (configuration not stated)	-2.8%	-13.5%	-0.3%	32.2%[14.3 µM]	u	13.6%	u	-14.4%
Cc1ccc(CNc2nc(C)c(C(=O)N(C)C)s2)cc1	x	-21.0%	x	14.0%[46.1 µM]	12.2%	-8.8%	u	7.7%
Cc1nn(C(C)C(=O)NC(C)CCc2ccccc2)c(=O)c2cc3occc3n12 (configuration not stated)	x	24.4%	x	-14.7%[46.1 µM]	u	-7.0%	-3.0%[46.1 µM]	-1.0%
Cc1cc(C)c(C)c(S(=O)(=O)Nc2cccc(-n3cnnn3)c2)c1C	x	28.3%	x	-5.4%[46.1 µM]	-2.1%	-18.6%	u	-2.4%
CN(C)CCOC(=O)c1ccc2[nH]c3c(c2c1)CSCC3	x	39.8%[activator]	x	-0.1%	8.0%	-5.6%	u	0.7%
CC(=O)N(CN1C(=O)CCC1=O)c1cccc(Cl)c1	4.3%	14.9%	-0.7%	u	-3.6%	-3.4%	6.5%	-3.5%
CC1CC(C)(C)NC(=S)N1CC(=O)NCc1ccc(F)cc1 (configuration not stated)	x	-0.4%	x	8.2%	x	-16.2%	-8.2%	3.0%
CN1CCN(Cc2ccc(OCc3ccccc3)cc2)CC1	8.1%	28.9%	1.0%	u	-3.9%	-6.1%	u	-0.2%
CCN(CC)CCCn1c2c(c(SCC(=O)Nc3ccc(F)c(F)c3)nc1=O)CCC2	x	1.0%	x	-4.3%	x	-15.6%	u	0.9%
CC(=O)Nc1ccc(N(C)C)cc1[N+](=O)[O-]	3.0%	25.1%	1.4%	-1.2%	-3.7%	9.1%	14.8%	5.4%
COc1cc2[nH]c(=S)n(CCCN3CCOCC3)c(=O)c2cc1OC	-9.9%	8.4%	1.3%	-16.1%	7.1%	-3.4%	14.9%	1.5%
COc1cccc(OCC(=O)Nc2ccccc2-c2ccccc2)c1	x	u	x	2.0%	-0.1%	0.7%	u	-3.0%
Cc1ccc(CCCOC(=O)C[N+]2(C)CCCCC2)cc1	x	-16.0%	x	-27.4%	-1.2%	-5.8%	u	0.3%
COc1ccccc1N1CCN(Cc2cccc(OC)c2OC)CC1	-3.7%	-24.5%	0.4%	-6.2%	6.0%	0.1%[3.69 µM]	u	9.5%
O=c1sc(Nc2ccccc2)nc2ccccc12	x	2.8%	x	6.9%	2.3%	13.8%	-2.9%[46.1 µM]	5.7%
Cc1ccc(N2NC(=O)/C(=C/C=C/c3ccco3)C2=O)cc1C	x	-18.2%	x	u	x	1.2%	1.1%[46.1 µM]	1.5%
COCCN(C(=O)c1ccc(N2C(=O)c3ccccc3C2=O)cc1)c1c(N)n(CC(C)C)c(=O)[nH]c1=O	x	-6.1%	x	0.7%	x	-3.3%	5.6%	-3.8%
Cc1ccc(CNC(=O)CC(C)S(=O)(=O)c2cc3c(cc2C)NC(=O)CO3)cc1 (configuration not stated)	x	-19.0%&-3.9%	x	-22.4%[46.1 µM]	14.9%	9.9%	x	5.4%
O=C(c1cc(-c2ccc(Cl)cc2)n(-c2ccc(Cl)c(Cl)c2)n1)N1CCOCC1	u	u	-5.4%	u	-12.4%	-8.8%	u	-1.7%
Cc1ccc2oc3c(c(=O)c2c1)C(c1cccc(O)c1)N(Cc1ccccc1Cl)C3=O (configuration not stated)	-0.8%	20.8%	-3.0%	25.5%[46.1 µM]	x	x	4.1%[46.1 µM]	x
CCN1CCCC1CN(Cc1cc2ccc(C)cc2[nH]c1=O)C(=S)Nc1ccc(OC)cc1 (configuration not stated)	0.1%	-15.6%	-0.2%	u	2.3%	-10.4%	4.5%	-16.9%
O=C(O)CCS(=O)(=O)c1ccccc1Cl	x	3.0%	x	7.1%	x	4.3%	-24.6%[14.2 µM]	0.8%
Cc1cc(C)c(NC(=O)COC(=O)C2CCC2)c(Cl)c1	x	10.9%	x	x	-4.0%	-1.0%	x	-9.9%
O=C(Nc1ccc(Cl)cn1)c1ccc2[nH]c(=O)c(=O)[nH]c2c1	x	17.2%	x	x	-0.3%	-9.8%	x	1.4%
CCN1CCN(C(c2ccccc2)c2c(O)cc(C)n(CCOC)c2=O)CC1 (configuration not stated)	10.2%	-17.7%	-5.6%	2.0%[46.1 µM]	x	x	x	x
COc1ccc(CCNC(=O)c2cc(COc3c(C)cccc3C)on2)c(OC)c1	x	20.4%	x	u	3.5%	-11.0%	5.6%	-0.4%
CCOc1ncccc1C(=O)NNC(=O)c1ccccc1-n1cccc1	x	-18.5%	x	x	5.8%	7.0%	x	-9.6%
Cc1ccsc1CN(Cc1ccco1)C(=O)c1ccc(Cl)cc1	-5.3%	0.0%	-9.1%	-13.5%[46.1 µM]	x	x	-3.4%[46.1 µM]	x
COc1ccc(C)cc1C(=O)CCC(=O)NCCc1ccc(S(N)(=O)=O)cc1	x	-9.3%	x	x	1.6%	-5.4%	x	0.2%
Cc1cccc(CCNS(=O)(=O)c2ccc3c(c2)n(C)c(=O)c(=O)n3C)c1	3.5%	11.9%	1.0%	x	-6.4%	4.2%	x	6.3%
O=P(c1ccccc1)(c1ccccc1)c1nc(-c2ccccc2)oc1NCc1ccccc1	x	u	x	23.6%[46.1 µM]	x	10.6%	u	0.4%
COc1ccc(N2CCN(C(=O)COc3ccc(Cl)cc3Cl)CC2)cc1	u	-28.0%	-7.4%	u	-7.6%	31.3%	11.6%	-2.0%
Cn1c(SCC(=O)Nc2cccc(C(=O)O)c2)nnc1-c1cc2cc(Br)ccc2o1	x	16.7%	x	-7.3%	-9.5%	1.0%	6.6%[46.1 µM]	-1.1%
COc1ccc(CNC(=O)c2ccc(SC)cc2OC)cc1	7.2%	48.9%[activator]	-3.4%	-13.7%	-12.1%	-12.8%	-1.0%	-5.9%
Cn1c(=O)c(C(=O)CCl)c(N)n(Cc2ccccc2)c1=O	1.4%	u	0.3%	-8.2%	u	2.2%	-15.8%	-21.5%
CN(CC(=O)Nc1ccc(Cl)cc1)C(=O)c1ccc(-n2cncn2)c([N+](=O)[O-])c1	x	-10.6%	x	-6.0%	x	-26.1%	u	-4.6%
COc1cc(C(=O)N2CCN(C(=O)COc3ccc4ccccc4c3)CC2)cc(OC)c1OC	u	-21.3%	-0.1%	0.6%	-15.7%	3.4%	4.7%	-1.6%
CCCC(NS(=O)(=O)c1ccc(C)cc1)C(=O)O (configuration not stated)	8.2%	-7.7%	4.1%	17.7%	6.0%	5.5%	24.6%	12.4%
O=C(O)c1ccc(OCc2cn3ccccc3n2)cc1	x	23.4%	x	x	1.5%	-26.6%	x	0.3%
COc1cc(/C=C/C(=O)O)cc(S(=O)(=O)Nc2cccc(SC)c2)c1OC	-1.0%	18.3%	-5.7%	1.4%	14.5%	-4.2%	-1.8%	2.6%
c1ccc(Cc2nc(-c3ccccn3)no2)cc1	3.8%	56.3%[activator]	15.1%	u	-28.9%	6.4%	4.1%	-2.0%
CSc1nc(Nc2ccc(C)cc2C)cc(-c2ccccc2)n1	-19.3%	u	-14.2%	1.1%[46.1 µM]	x	x	-0.9%[46.1 µM]	x
Cc1cc(S(=O)(=O)NCC(C)C)ccc1OCC(=O)NCc1ccco1	x	49.7%[activator]	x	-5.0%	-2.4%	-0.7%	-7.7%	1.1%
CNc1nc(OCC#N)nc(N2CCCCC2)n1	x	-28.2%	x	u	0.0%	1.2%	-6.5%[46.1 µM]	0.8%
NS(=O)(=O)c1ccc(NC(=O)COc2ccc(S(=O)(=O)NC3CCCCC3)cc2)cc1	-0.7%	31.4%[activator]	-3.8%	u	x	x	-0.1%[46.1 µM]	x
CCC1SC2=NCCN2C1(O)c1ccc(Cl)cc1 (configuration not stated)	-10.9%	-26.8%	3.4%	23.3%	-1.8%	-6.3%	-15.2%	-4.0%
COC(=O)CN1C(=O)C(O)(CC(=O)c2ccc(Cl)cc2)c2ccccc21 (configuration not stated)	-2.7%	-8.5%	-0.3%	x	-11.4%	6.6%	x	2.4%

Next section:
SMILES	Cruzain noTriton	StopGo reporter	Cruzain inh Det	Lassa entry inh	NS1 function inh	RE007 growth inh	MARV entry inh	SARS PLP yeast
Cc1cc(C)n(Cc2ccc(C(=O)NN)o2)n1	x	3.6%	x	x	3.2%	7.5%	x	-0.9%
CCOc1ccc(-c2nnn(CC(=O)NCc3ccc4c(c3)OCO4)n2)cc1	-8.1%	-24.5%	0.9%	-10.7%	18.0%	3.1%	14.3%	13.9%
O=C(O)c1ccc(NC(=O)C2C3CCC(C3)C2C(=O)O)cc1 (configuration not stated)	-7.8%	-19.6%	1.9%	16.5%	-14.1%	17.1%	13.9%	-18.8%
Cc1ccc(Cn2c(CCCNC(=O)c3ccco3)nc3ccccc32)cc1	3.4%	0.0%	-4.1%	-2.2%[46.1 µM]	x	x	u	x
C[C@]1(C(=O)NCCN2CCOCC2)C=C[C@@H](Cc2ccccc2)N1C(=O)c1ccccc1	4.0%&-7.7%	0.0%	1.7%&0.7%	1.6%	-10.6%	-9.1%	-3.6%	0.9%
COc1ccc(OCC(O)CNC(=O)c2ccc(C)cc2)cc1 (configuration not stated)	x	7.2%	x	-9.2%	-2.5%	-12.4%	0.0%[14.2 µM]	-2.7%
CCOc1ccccc1Oc1nc(-c2ccccc2O)nc2ccccc12	x	-9.1%	x	x	3.4%	0.5%	x	-3.4%
COc1cc2c(cc1OC)C1C/C(=N\O)C(CC(C)C)CN1CC2 (configuration not stated)	1.4%	-41.1%	3.5%	-9.9%	-6.3%	7.6%	-23.3%	1.3%
COC(=O)c1cc(C(=O)Nc2nnc(CC(C)C)s2)cc([N+](=O)[O-])c1	-2.6%	-23.0%	-1.5%	0.7%	-9.2%	-4.5%	-16.0%	5.0%
